Screening data from PubChem BioAssay.
ClpP mod: qHTS Assay for Activators of ClpP | ATP-dependent Clp protease proteolytic subunit (Bacillus subtilis (strain 168)), P80244 | purified B. subtilis ClpP, FRET peptide cleavage, 20 min | Potency, µM (series often up to 57.5 µM), inactives show at the highest dose activity change, negative = active | 340,000 compounds, 1.9% hits; active = well fitted falling curve with a large enough effect; inconclusive = small, poorly fitted or top-dose-only effect; inactive = no such curve, though single readings can be large or run the other way; further: the source files actives as falling curves though it sought activators and does not explain the sign; nearly all actives have a fitted effect of over 65% in size; many hits overshoot -100%
Target sequence (P80244 whole entry, looked up): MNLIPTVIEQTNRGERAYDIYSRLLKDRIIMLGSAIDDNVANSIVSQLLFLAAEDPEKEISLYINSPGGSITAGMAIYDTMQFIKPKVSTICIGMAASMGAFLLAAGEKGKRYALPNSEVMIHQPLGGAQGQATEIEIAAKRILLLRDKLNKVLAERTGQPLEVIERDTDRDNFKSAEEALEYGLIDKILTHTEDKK
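ClpP 10 microg/mL final, pH 8 Tris/KCl buffer with BSA, glycerol, Tween-20; compound pinned in; FRET-FV substrate; RT 20 min; Ex320/Em430; ΔFRET vs ADEP 5.8 microM, DMSO, no enzyme.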
Starred values were filed as active, the others as inactive; ? = inconclusive. Potency means the concentration at half of the fitted maximal effect. A portion of the library; the hit share may differ from the screen's.

cpd	structure	ClpP mod
1	COc1ccc(CCN2C(=O)c3[nH]nc(-c4ccccc4O)c3C2c2ccc(OC)cc2)cc1 (centres undefined)	-8.1%
2	CC(C)(C)OC(=O)N1CCC(c2c(C(=O)Nc3ccc4c(c3)OCCO4)cnn2-c2ccc(Cl)cc2)CC1	57.6%
3	COCCn1c(=NC(=O)c2ccc3c(c2)OCCO3)sc2cc(NC(C)=O)ccc21	4.6%
4	Cc1cc2c(cc1C)-n1nnnc1C(N1CCN(C(=O)OCc3ccccc3)CC1)C(=O)N2 (centres undefined)	-2.1%
5	CCOC(=O)[C@]12CCC=C1N(Cc1ccccc1)C(=O)[C@H](CC(=O)N1CCSCC1)C2	0.6%
6	COc1cccc(C(=O)Nc2ccccc2-c2nnc(-c3ccc(C(C)(C)C)cc3)o2)c1	-2.7%
7	CCn1c2ccccc2c2cc(NC(=O)COc3ccc(C)cc3C)ccc21	-24.8%
8	O=C(CSc1cn(CC(=O)N2CCCCC2)c2ccccc12)Nc1ccccc1F	-4.8%
9	Fc1ccc(-c2cn3cc(Cc4ccccc4Cl)sc3n2)cc1	-4.9%
10	Cn1c(=O)c2c(-c3ccc(Cl)cc3)n(CCc3ccccc3)cc2n(C)c1=O	4.0%
11	COc1ccc(S(=O)(=O)NCCS(=O)(=O)N2CCN(c3ccccc3)CC2)cc1C	-2.2%
12	CCN1CCN(c2ncnc3c2cnn3-c2cccc(C)c2)CC1	?
13	COc1ccc(NC(=O)C2Cc3ccccc3N2C(=O)c2ccccc2)c(OC)c1 (centres undefined)	-1.8%
14	C=CCN1CC[C@@H](O)C(=C)S1(=O)=O	-0.1%
15	CCOc1ccc(C(=O)c2cn(CC(=O)Nc3ccc4c(c3)OCCO4)c3ccc(F)cc3c2=O)cc1	-3.0%
16	COc1ccccc1NC(=O)C(=O)c1cc(C)n(-c2cc(C)cc(C)c2)c1C	-4.3%
17	Cc1cc(N2CCN(C(C(=O)NC3CCCC3)c3ccco3)CC2)c2ccccc2n1 (centres undefined)	-2.8%
18	COc1ccccc1CNS(=O)(=O)c1c(C)nc2sc(C)cn2c1=O	31.6µM*
19	CCN(CCCNC(=O)CN1N=C(c2ccc(C)cc2)CCC1=O)c1ccccc1	-0.3%
20	Cc1ccc(CNC(=O)c2nc(SCc3ccc(C)cc3)ncc2Cl)cc1	-4.9%
21	CCOCC(=O)Nc1ccc(-c2cn3c(C)csc3n2)cc1	-4.7%
22	Cc1ccc(NNC(=O)c2sccc2Cl)c(C)c1	-6.2%
23	Cc1ccc(N(C)C(=O)C2CCCN(c3ncnc4c3nc3n4CCCCC3)C2)cc1C (centres undefined)	0.1%
24	COc1ccccc1NC(=O)c1cc2cc3ccc(OC)c(Cl)c3nc2s1	-4.4%
25	O=C(Cn1cc(C(=O)c2ccncc2)c(=O)c2cc(F)ccc21)Nc1ccc(Cl)cc1	-2.3%
26	COc1ccc(CC(=O)NC2CC(=O)N(c3ccc4c(c3)OCCO4)C2)cc1 (centres undefined)	1.6%
27	O=C(NCCCN1CCN(c2ccc(F)cc2)CC1)Nc1ccccc1Cl	-3.4%
28	Cc1cc(C)c(CN2C(=O)c3ccccc3S(=O)(=O)c3ccc(C(=O)OCC4CCCO4)cc32)c(C)c1 (centres undefined)	-7.7%
29	CCc1cccc(C)c1NC(=O)C(NS(=O)(=O)c1ccc2c(c1)CCC(=O)N2)c1ccccc1 (centres undefined)	-0.3%
30	Cc1c(C(=O)N2CCOCC2)oc2c1-c1nn(CC(=O)NCc3cccc(F)c3)cc1CC2	46.6%

Reprinted from the part before: 5 compounds, followed by the next part.
cpd	structure	ClpP mod
26	COc1ccc(CC(=O)NC2CC(=O)N(c3ccc4c(c3)OCCO4)C2)cc1 (centres undefined)	1.6%
27	O=C(NCCCN1CCN(c2ccc(F)cc2)CC1)Nc1ccccc1Cl	-3.4%
28	Cc1cc(C)c(CN2C(=O)c3ccccc3S(=O)(=O)c3ccc(C(=O)OCC4CCCO4)cc32)c(C)c1 (centres undefined)	-7.7%
29	CCc1cccc(C)c1NC(=O)C(NS(=O)(=O)c1ccc2c(c1)CCC(=O)N2)c1ccccc1 (centres undefined)	-0.3%
30	Cc1c(C(=O)N2CCOCC2)oc2c1-c1nn(CC(=O)NCc3cccc(F)c3)cc1CC2	46.6%
31	O=C(CCCn1c(=O)[nH]c2ccccc2c1=O)N1CCN(c2ccccc2)CC1	-5.9%
32	CC(=O)N1CCCc2cc(S(=O)(=O)N3CCC(C(=O)NCc4ccc(F)cc4)CC3)ccc21	-3.0%
33	CCOC(=O)N1CCN(C(=O)C[C@@H]2C[C@@]3(C(=O)OCC)CCCC=C3N(CCc3ccc(OC)c(OC)c3)C2=O)CC1	2.5%
34	Cc1cccc(C(=O)Nc2ccc3nc(SCC(=O)N4CCc5ccccc54)sc3c2)c1	?
35	CC1CCN(S(=O)(=O)c2ccc3c(ccn3CC(=O)NCc3ccccc3F)c2)CC1	-6.4%
36	COc1ccc(CCNc2oc(COc3ccc(Cl)cc3)nc2C#N)cc1OC	0.5%
37	Cc1ccc(N(CC(=O)NCC(C)c2ccccc2)S(=O)(=O)N(C)C)cc1 (centres undefined)	0.0%
38	Cc1ccc(S(=O)(=O)N2CCN(c3nc(-c4ccc(CN5CCNCC5)s4)nc4ccccc34)CC2)cc1	-12.9%
39	CN(C)c1ccc(CNC(=O)CCn2cccn2)cc1	-6.2%
40	COc1cccc(-c2noc(COc3ccccc3Cl)n2)c1	-0.4%
41	Cc1nn2c(=O)cc(COC(=O)c3ccc(NC(=O)c4cccc(Br)c4)cc3)nc2s1	4.6%
42	CCCn1c2ccccc2c2cnn(CC(=O)N(Cc3ccccc3)C(C)C)c(=O)c21	?
43	CCCCn1nnnc1C(c1ccccc1)N1CCN(c2ccccc2OC)CC1 (centres undefined)	0.6%
44	O=C(Nc1ccc(F)c(Cl)c1)N1CCC2(CC1)Oc1ccccc1C(=O)N2Cc1ccccc1F	1.7%
45	Cc1ccc(-c2nnc(SCc3cccc(C#N)c3)o2)cc1	-1.8%
46	Cc1ccc(NC(=O)Cn2cc(S(=O)(=O)N3CCN(c4ccccc4F)CC3)c3ccccc3c2=O)cc1F	-26.5%
47	CC1=C(C(=O)Nc2ccc(C)cc2Cl)C2(CCCCC2)OC1=O	-2.0%
48	C[N+](C)(C)CCNC(=O)c1ccccc1	1.6%
49	O=C(Nc1ccc(Cl)cc1)N1CCN(c2ccc3nnc(-c4ccccc4)n3n2)CC1	-0.9%
50	COCCCNC(=O)C[C@@H]1C[C@@]2(C(=O)OC)CC(C)(C)CC=C2N(Cc2ccco2)C1=O	1.2%
51	C=C1C=C(C)n2ncc(C(=O)N(CCc3ccccc3)Cc3ccccc3)c2N1	4.6%
52	CCCCN(C)CCNC(=O)C1CCCN(S(=O)(=O)c2ccc3c(c2)oc(=O)n3C)C1 (centres undefined)	-0.2%
53	O=C(CC1C(=O)N(c2ccc(F)cc2)C(=O)N1Cc1ccc2c(c1)OCO2)Nc1ccc(F)cc1 (centres undefined)	1.3%
54	CC1(C)CC(=O)C2=C(C1)NC(Nc1nc3ccccc3o1)=NC2c1ccccc1 (centres undefined)	4.2%
55	COc1ccc(NC(=O)c2cc3c(=O)n(Cc4ccco4)ccc3nc2C)cc1	-15.2%
56	CCOc1ccc(NC(=O)c2cnn3c2NC(c2ccccc2)=CC3c2cccc(OC)c2OC)cc1 (centres undefined)	1.1%
57	CC(C)C(=O)N1c2nc(C(C)C)nn2C2(CCCCC2)[C@@H]2CCCC[C@@H]21	-1.0%
58	CCCCN1CCc2nc(Nc3ccc(OC)cc3OC)ncc2C1	1.6%
59	Cc1ccc(CNC(=O)CCc2c(C)c3ccc(O)c(C)c3oc2=O)cc1	4.7%
60	CN(C)c1ccc(/C=C/c2ccnc3c(O)ccc(O)c23)cc1	-4.1%
61	COc1ccc(C(=O)CN2CCN(S(=O)(=O)c3ccc(F)cc3)CC2)cc1	-2.2%
62	CC1NS(=O)(=O)c2cc([N+](=O)[O-])ccc21 (centres undefined)	-1.0%
63	COc1cc(Cl)c(C)cc1Nc1nc2ccccc2c2nnc(C)n12	0.6%
64	Cc1c(NC(=O)c2ccc(Cl)cc2)cc(C(C)C)c(O)c1S(=O)(=O)c1ccc(Cl)cc1	-2.9%
65	COCCn1c(CNC(=O)c2cc([N+](=O)[O-])ccc2Cl)nc2cccnc21	-1.8%
66	CCS(=O)(=O)N1CCC2(CC1)OC(=O)C(C)=C2C(=O)NCc1ccccc1C	-0.6%
67	Cc1[nH]c2ccccc2c1C1(O)C(=O)N(Cc2ccccc2Cl)c2ccccc21 (centres undefined)	0.9%
68	COc1ccc(-c2nc(Cn3c(SCc4cccc(Cl)c4)nc4ccncc43)c(C)o2)cc1	39.1%
69	Cc1cccc(NC(=O)CSc2nc(-c3ccccc3)cn2-c2ccccc2)c1C	-1.9%
70	CC1Cc2cc(S(=O)(=O)N(C)c3ccc(Br)cc3)ccc2N1C(=O)C1CC1 (centres undefined)	0.8%
71	O=C(CSc1nc2c([nH]c3ccccc32)c(=O)n1-c1ccccc1)N1CCCCC1	-11.5%
72	Clc1ccc(-c2noc3ncnc(NCCCN4CCN(c5ccccc5)CC4)c23)cc1	-0.7%
73	COc1cccc(CNC(=O)c2c3c(nc4ccccc24)C(=O)N(C2CCCCC2)C3)c1	-2.8%
74	COc1cc(C2CC(=O)Nc3cc4c(cc32)OCO4)cc(OC)c1O (centres undefined)	0.3%
75	Cn1nc(C(=O)N2CCN(c3ccccc3)CC2)c2c1-c1ccccc1SC2	-1.7%
76	Cc1ccccc1CSCCNC(=O)CN(c1ccccc1)S(=O)(=O)N(C)C	-2.5%
77	Cn1ncc2c(NCc3ccccc3Cl)nc(NCCO)nc21	-13.5%
78	COc1ccc(C)cc1NC(=O)Cn1c(=O)n(Cc2nc(C)no2)c(=O)c2ccccc21	-11.7%
79	CCOC(=O)c1ccc(Nc2nc3ccccc3nc2NS(=O)(=O)c2ccc(Cl)cc2)cc1	4.2%
80	O=C(Nc1nc(-c2ccc(Br)cc2)ns1)c1ccc(F)cc1	-5.6%
81	O=C(CC1N=C2c3ccccc3N=C(SCc3ccccc3Cl)N2C1=O)NCc1cccs1 (centres undefined)	-6.7%
82	CCOc1ccc(CCNC(=O)CCCn2nc(C)c3sc4ccccc4c3c2=O)cc1OCC	?
83	CCOC(=O)c1ccc(-n2c(CCC(=O)O)ccc2-c2ccc(Br)cc2)cc1	-0.2%
84	Cc1cc(Nc2cccc(C(F)(F)F)c2)nc2ccc(NC(=O)c3cccc(Cl)c3)cc12	?
85	CCc1ccccc1NC(=O)C(C)n1c(=O)cc(C)c2c(C)nn(-c3ccccc3)c21 (centres undefined)	-3.7%
86	CNS(=O)(=O)c1cn(CC(=O)N2CCN(c3ccc(C(C)=O)cc3)CC2)cc1S(=O)(=O)NC	-8.1%
87	CSc1ccc(CCNC(=O)CCc2c(C)nc3c(c(C)nn3-c3ccc(C)c(C)c3)c2C)cc1	-18.0%
88	Cc1ccc(CNC(=O)CN(C)S(=O)(=O)c2ccc3c(c2)c(=O)n(C)c(=O)n3C)cc1	-3.5%
89	Fc1cccc(NCc2ccccc2-c2nnc(-c3ccccc3Cl)o2)c1	0.9%
90	Cc1cccc(C)c1-n1ncc(C(=O)NCCN2CCN(C)CC2)c1C1CCN(C(=O)OC(C)(C)C)CC1	1.4%

Next part
cpd	structure	ClpP mod
91	O=C1CCCc2cc(S(=O)(=O)NCC3CCC(C(=O)NCc4ccccc4Cl)CC3)ccc2N1 (centres undefined)	-3.0%
92	CSc1ccc(CCNC(=O)c2ccc3c(c2)nc2n3CCCCC2)cc1	0.5%
93	COc1ccc(CCNC(=O)c2c(C)oc3ncn(C)c(=O)c23)c(OC)c1	-0.4%
94	Cc1ccc(Cl)cc1NC(=O)CCc1c(C)nc2c3cccnc3nn2c1C	3.55µM*
95	CCOC(=O)CCNC(=O)N1CCN(S(=O)(=O)c2ccc3c(ccn3C)c2)CC1	-0.9%
96	Cc1cc(C)c(NS(=O)(=O)c2ccc(-c3cnc(C4CC4)o3)cc2)c(C)c1	-25.1%
97	CN(C)CCNc1nccc(N2CCN(C)CC2)n1	-19.0%
98	CCOc1ccc(CCNC(=O)CCc2c(C)nc3cc(-c4ccccc4OC)nn3c2C)cc1	4.0%
99	COc1cc(CNc2ccc3[nH]c(=O)[nH]c3c2)cc(Cl)c1OCc1ccc(F)cc1	9.0%
100	CCOC(=O)C1CCN(C(=O)c2ccccc2NC(=O)c2nsc3ccccc23)CC1	-3.8%
101	O=C(NCCCCc1ccccc1)c1nn(-c2ccccc2)nc1CO	?
102	Nc1nc(NCc2ccc(Cl)cc2)c2[nH]cnc2n1	-3.2%
103	Cc1cc(=O)n(CC(=O)NC(C)c2ccccc2)c2c1c(C)nn2C (centres undefined)	3.9%
104	CC(C)Sc1ncc(Cl)c(C(=O)Nc2ccc(S(=O)(=O)N3CCCCC3C)cc2)n1 (centres undefined)	0.8%
105	CCOC(=O)C1=CCC(c2ccc(N(CC)CC)cc2)N(S(=O)(=O)c2ccc(C)cc2)C1c1ccc([N+](=O)[O-])cc1 (centres undefined)	0.3%
106	Cc1ccc(Cn2c(C)c(CNCCCc3ccccc3)c(C(=O)O)c2C)cc1	0.4%
107	Cc1ccc(S(=O)(=O)N2CCC(=O)N([C@H](CO)Cc3ccccc3)CC2)cc1	-1.2%
108	Fc1ccc(-c2cc(C(F)(F)F)nc(NCc3ccccc3)n2)cc1	22.4µM*
109	CCOC(=O)c1oc2ccc(S(=O)(=O)n3nc(-c4ccc(Br)cc4)cc3N)cc2c1C	-1.4%

Part of the list above, field by field:
98. CCOc1ccc(CCNC(=O)CCc2c(C)nc3cc(-c4ccccc4OC)nn3c2C)cc1
  ClpP mod = 4.0%

96. Cc1cc(C)c(NS(=O)(=O)c2ccc(-c3cnc(C4CC4)o3)cc2)c(C)c1
  ClpP mod = -25.1%
